Sa growth inh = inhibitors of Staphylococcus aureus growth at 42 °C | S. aureus RN4220 growth, OD600, 20 h; hits give low values | actives 0.53% (n = 170,000) | relative growth, % (concentration not given with the values) | AID 720641;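 active = growth at 42 °C up to 50% and 20 or more points under that at 30 °C, or under 10% at both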;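 also: 300 nL library stock went into each well; scaled to the means of positive and negative controls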
HCMV UL50-53 inh = cytomegalovirus nuclear egress complex inhibition | HTRF UL50-UL53 interaction, normalized percent inhibition | inhibition, % (concentration not given with the values) | actives 0.15% (n = 190,000);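 active = both replicates at 50% or more, plus weaker picks with an unusually low signal ratio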;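 also: stock transfer was 100 nL into about 20 µL; 0% = negative control wells and 100% = wells with untagged competitor protein; inactives centre near -12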
GIV Gai3 FP = inhibitors of GIV GBA-motif binding to rat Galpha-i3 | P08753 | Galpha-i3/FITC-GIV peptide fluorescence polarization, 90 min; hits give low values; scaled: aluminum fluoride 0%, vehicle 100% | percent of control (FP), % (no concentration beside the values) | actives 0.42% (n = 210,000);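 active = replicate mean at 85% of control or lower, very high polarization wells dropped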;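 also: wells of about 15 µL received 100 nL stock; the first replicate is given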
Target sequence (P08753 whole entry, looked up): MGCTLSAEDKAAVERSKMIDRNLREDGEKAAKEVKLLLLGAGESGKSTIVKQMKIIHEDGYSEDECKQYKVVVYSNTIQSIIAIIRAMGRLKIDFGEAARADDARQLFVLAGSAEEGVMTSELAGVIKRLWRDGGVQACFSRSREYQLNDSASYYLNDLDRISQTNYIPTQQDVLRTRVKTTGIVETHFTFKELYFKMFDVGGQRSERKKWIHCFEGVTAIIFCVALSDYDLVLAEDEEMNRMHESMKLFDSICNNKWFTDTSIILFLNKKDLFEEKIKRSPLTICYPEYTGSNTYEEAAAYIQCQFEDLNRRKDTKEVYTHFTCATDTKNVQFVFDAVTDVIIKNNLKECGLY
Sa growth inh second temp = recorded beside Sa growth inh, whose call it bears; relative growth, %; measured here: growth at 30 °C;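 optical density after 20 h as mean of two plates; 100% = untreated growth and lower means inhibition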
The depositor's hits bear a star; / = no result given.

Field names: A = Sa growth inh; B = Sa growth inh second temp; C = HCMV UL50-53 inh; D = GIV Gai3 FP
> O=C(/C=C/Sc1ccccn1)c1ccccc1
  A = 102.4 | B = 82.5 | C = -9.9 | D = 85.7
> c1ccc(SCCN2CCN(CCSc3ccccc3)CC2)cc1
  A = 95.8 | B = 96.3 | C = -5.3 | D = /
> CC1Cc2ccccc2N1CC(=O)Nc1ccc(C#N)cc1 (stereo unspecified)
  A = 88.1 | B = 92.9 | C = -1.6 | D = /
> COc1ccc(NC(=O)c2ccnc(N3CCC(C)CC3)c2)cc1
  A = / | B = / | C = -3.3 | D = 108.0
> COc1ccc(C(=O)n2ncc(C#N)c2N)cc1
  A = 108.3 | B = 91.0 | C = -7.8 | D = /
> CC1=CC(c2ccc(F)cc2)C(C(=O)O)(C(=O)n2nc(C)cc2C)CC1 (stereo unspecified)
  A = 101.8 | B = 109.8 | C = 4.8 | D = /
> CNC(=S)Nc1cscc1S(=O)(=O)c1ccc(Cl)cc1
  A = 94.0 | B = 84.7 | C = -29.6 | D = 99.0
> O=C(NCc1ccc(Cl)cc1)c1ccc2c(=O)n(-c3ccccc3)c(=O)[nH]c2c1
  A = 99.5 | B = 72.3 | C = / | D = 107.0
> Cc1ccc2nc(SCC(=O)N(C(C)C)C(C)C)[nH]c2c1
  A = 76.5 | B = 81.5 | C = -23.9 | D = 98.5
> CCOC(=O)C1CCCN(c2c(NCCN3CCCCC3CC)c(=O)c2=O)C1 (stereo unspecified)
  A = / | B = / | C = -28.5 | D = 101.2
> Cc1ccc(C(=O)OCc2cn3ccccc3n2)cc1
  A = 93.3 | B = 97.7 | C = 4.9 | D = /
> COc1ccc(CN2C(=O)NC(=O)/C(=C\c3cc4c(cc3[N+](=O)[O-])OCO4)C2=O)cc1
  A = / | B = / | C = -74.8 | D = 99.5
> CC(=O)N1[C@@H](c2ccc(C)cc2)SC(C)(C)[C@@H]1C(=O)O
  A = 99.2 | B = 89.3 | C = -29.2 | D = 102.2
> COCCCNC(=O)CCCN1C(=O)CCn2nc(-c3cn(C)c4ccccc34)cc21
  A = 90.6 | B = 94.7 | C = / | D = 102.5
> Cc1c(NC2CS(=O)(=O)CC2O)c(=O)n(-c2ccccc2)n1C (stereo unspecified)
  A = 93.7 | B = 97.6 | C = 12.7 | D = /
> CCOC(=O)c1sc(Nc2nc3ccccc3nc2Cl)c(C#N)c1C
  A = 91.2 | B = 58.9 | C = -28.2 | D = /
> Cc1c(C(=O)NCC2CCCO2)nnn1-c1ccc2noc(-c3ccc(Br)cc3)c2c1 (stereo unspecified)
  A = / | B = / | C = -35.0 | D = 116.3
> O=C(CSc1ncnc2sc3c(c12)CCC3)NCCN1C(=O)CSC1=O
  A = 87.5 | B = 92.7 | C = -4.7 | D = /
> O=C(/C=C/c1ccccc1)Nc1ccc2c(c1)OCO2
  A = 99.4 | B = 87.2 | C = -30.7 | D = /
> CCN(Cc1ccccc1)C(=O)c1ccc(C(=O)N(CC)Cc2ccccc2)cc1
  A = 105.5 | B = 86.5 | C = -9.9 | D = /
> CC(C)CN(CC(C)C)S(=O)(=O)N1CCC(C(=O)N2CCOCC2)CC1
  A = 95.1 | B = 89.9 | C = / | D = 102.5
> CCN(CC)N=Nc1ccc(S(=O)(=O)Nc2nc(C)cc(C)n2)cc1
  A = 96.8 | B = 89.8 | C = -15.3 | D = 102.0
> Cc1cccc(N2CCN(C(=O)CN3C(=O)COc4ccc(S(=O)(=O)N5CCOCC5)cc43)CC2)c1C
  A = 101.9 | B = 84.8 | C = -39.8 | D = 100.9
> O=C(c1ccccc1C(F)(F)F)N1CCCN(CCc2ccccc2)CC1
  A = 127.6 | B = 90.4 | C = -1.3 | D = 108.2
> Cn1c(C(=O)N2CCN(c3ccccc3)CC2)cc2c(=O)oc3ccccc3c21
  A = / | B = / | C = -14.2 | D = 103.2

Three compounds from above, sorted by their value in Sa growth inh second temp, rising.
| molecule | Sa growth inh | Sa growth inh second temp | GIV Gai3 FP |
| --- | --- | --- | --- |
| CCOC(=O)c1sc(Nc2nc3ccccc3nc2Cl)c(C#N)c1C | 91.2 | 58.9 | / |
| Cc1ccc2nc(SCC(=O)N(C(C)C)C(C)C)[nH]c2c1 | 76.5 | 81.5 | 98.5 |
| Cc1ccc(C(=O)OCc2cn3ccccc3n2)cc1 | 93.3 | 97.7 | / |

More compounds
Field names: A = Sa growth inh; B = Sa growth inh second temp; C = HCMV UL50-53 inh; D = GIV Gai3 FP
> CCOC(=O)c1cc(-c2cccs2)nn1CCC#N
  A = 89.8 | B = 85.2 | C = -34.7 | D = /
> CC1CCN(S(=O)(=O)c2cc(Br)cc(C(=O)OCC(=O)N3CC(=O)Nc4ccccc43)c2)CC1
  A = 122.1 | B = 102.4 | C = -11.7 | D = /
> Cc1ccc(COn2c(-c3ccccc3)nc3ccccc3c2=O)cc1
  A = 101.9 | B = 89.8 | C = -10.9 | D = 103.9
> Nc1ncc(-c2cc3ccccc3oc2=O)s1
  A = 97.7 | B = 90.0 | C = / | D = 107.2
> COc1ccc(C2C(C(=O)N3CCN(Cc4ccc5c(c4)OCO5)CC3)CC(=O)N2c2ccc(OC)cc2)cc1 (stereo unspecified)
  A = 102.0 | B = 81.4 | C = -21.7 | D = 99.8
> COC(=O)c1cn(CC(=O)OCC(=O)Nc2ccc(F)cc2)c2ccccc12
  A = 98.5 | B = 97.2 | C = -3.5 | D = /
> COc1cc(OC)c(C2C(C#N)=C(N)Oc3n[nH]c(-c4ccc([N+](=O)[O-])cc4)c32)cc1OC (stereo unspecified)
  A = / | B = / | C = -57.1 | D = 99.0
> CCOC(=O)Cn1cnc2c(nnn2-c2ccc(C)cc2)c1=O
  A = 109.4 | B = 83.7 | C = / | D = 97.2
> CC(C)(C)N1CC(c2nc3ccccc3n2CC(O)COc2ccccc2)CC1=O (stereo unspecified)
  A = / | B = / | C = 15.8 | D = 106.9
> O=S(=O)(CCc1ccccc1)/N=C/c1cccs1
  A = 105.8 | B = 83.9 | C = -33.5 | D = /
> CCc1cc2c(COC(=O)c3ccccn3)cc(=O)oc2cc1O
  A = 73.8 | B = 84.4 | C = -48.0 | D = /
> CCOc1ccc(NC(=O)Cn2c(=O)n(CCCCC(=O)NCc3ccc4c(c3)OCO4)c(=O)c3ccccc32)cc1
  A = 95.8 | B = 93.2 | C = -13.4 | D = 104.5
> CCN(Cc1ccccc1)C(=O)CC1Oc2ccccc2NC1=O (stereo unspecified)
  A = 96.0 | B = 81.6 | C = / | D = 102.3
> O=C(c1csc(S(=O)(=O)NC2CCCCC2)c1)N1CCOCC1
  A = / | B = / | C = -32.5 | D = 103.6
> Cc1ccc2nc3c(cc2c1)CCN3C(=O)C(C)(C)C
  A = / | B = / | C = 3.4 | D = 107.8
> CC(=O)C1=C(c2ccccc2)N(C(C)=O)n2c(nnc2C2CCCCC2)S1
  A = 111.2 | B = 104.2 | C = / | D = 108.5
> Cc1ccc(Cc2c(C)nc(N3CCCC3)[nH]c2=O)cc1
  A = 93.5 | B = 87.9 | C = -23.1 | D = 98.0
> Cc1ccc2oc(=O)c3cc(C(=O)NCCN4CCN(Cc5ccccc5)CC4)sc3c2c1
  A = 81.3 | B = 86.5 | C = / | D = 104.8
> CNC(=S)N(Cc1ccco1)Cc1cc2ccc(C)cc2[nH]c1=O
  A = 104.2 | B = 104.3 | C = -15.1 | D = 96.9
> CCC1CCCCN1CCCNC(=O)c1cc2c(=O)n(CC)c3ccccc3c2s1 (stereo unspecified)
  A = 117.1 | B = 87.9 | C = -43.9 | D = 103.4
> CC(O)CNC(=O)C1CC(=O)N(c2ccccc2)C1 (stereo unspecified)
  A = 102.0 | B = 78.3 | C = 7.0 | D = 102.2
> CCn1cc(C(C)(C)C)c(C#N)c1NC(C)=O
  A = 117.9 | B = 83.7 | C = 3.1 | D = /
> COC(=O)c1ccccc1S(N)(=O)=O
  A = 75.2 | B = 88.5 | C = -15.7 | D = /
> O=C(O)/C=C/C(=O)NC1CC1
  A = 93.2 | B = 80.0 | C = / | D = 97.8
> Cc1ccc2c(c1)C(=O)C(=O)N2Cc1ccc(OC(C)C)cc1
  A = 99.5 | B = 47.5 | C = -9.8 | D = 102.4
> O=C(O)c1ccccc1N1Cc2ccccc2C1=O
  A = / | B = / | C = 3.6 | D = 97.2
> CC(C)N(Cc1ccccc1)C(=O)c1cc2c(=O)n3ccccc3nc2n1C
  A = / | B = / | C = -31.1 | D = 106.0
> COc1cccc(CN(CCO)Cc2ccccc2)c1OC
  A = 88.4 | B = 89.0 | C = 3.6 | D = 98.4
> CCc1ccccc1NC(=O)Cn1ncn2c(cc3ccccc32)c1=O
  A = / | B = / | C = -10.4 | D = 107.5
> O=S(=O)(c1ccc(Cl)nc1)N1CCCC1
  A = 83.2 | B = 92.2 | C = 0.2 | D = /
> CCOC(=O)c1ccc(Nc2ncnc3c2cnn3Cc2ccccc2)cc1
  A = 99.0 | B = 93.8 | C = 5.1 | D = 109.2
> CCOC(=O)c1c(C)[nH]c(C)c1S(=O)(=O)NCC(=O)Nc1cccc(SC)c1
  A = 94.9 | B = 94.7 | C = / | D = 102.9
> COc1ccc(Cl)cc1NC(=O)c1ocnc1C
  A = 102.5 | B = 81.0 | C = -3.8 | D = 110.2
> COC(=O)/C(C#N)=C/c1ccc(Cl)cc1
  A = 92.4 | B = 89.6 | C = -62.6 | D = 100.0
> COc1cc(-c2nnc(SCC(=O)N3CCCCC3C)o2)cc(OC)c1OC (stereo unspecified)
  A = 115.7 | B = 84.5 | C = / | D = 100.9
> Clc1ccc(-c2csc3ncnc(NCc4ccco4)c23)cc1
  A = 69.0 | B = 59.7 | C = -4.2 | D = /
> O=C1CSc2ccc(C(=O)NCc3c(F)cc(F)cc3F)cc2N1
  A = 116.5 | B = 84.2 | C = / | D = 99.3
> OCCn1c2ccccc2c2cc(Cl)ccc21
  A = 88.7 | B = 66.2 | C = 20.8 | D = 99.1
> O=C(O)CC1C(=O)NCCN1Cc1ccc(F)cc1 (stereo unspecified)
  A = / | B = / | C = -7.0 | D = 99.0
> Cc1ccc2c(COC(=O)C3CSC4(C)CCC(=O)N34)cc(=O)oc2c1C (stereo unspecified)
  A = 108.5 | B = 112.3 | C = -4.5 | D = /
> Cc1ccc(C(=O)NCC(=O)OC2CCCCC2=O)cc1C (stereo unspecified)
  A = 96.6 | B = 96.1 | C = -6.1 | D = /
> CCCc1nnc(NC(=O)C2CC(=O)N(C3CCCC3)C2)s1 (stereo unspecified)
  A = 111.5 | B = 84.9 | C = / | D = 103.8
> NCC1CCCN(CCc2ccccc2)C1 (stereo unspecified)
  A = 88.8 | B = 90.1 | C = -27.7 | D = 101.3
> O=C(O)c1cc(S(=O)(=O)NCCN2CCNC2=O)ccc1O
  A = 96.2 | B = 88.2 | C = -4.0 | D = 98.3
> COc1ccc(N2C(=O)CS(=O)(=O)C23C(=O)N(Cc2cccc(F)c2)c2ccccc23)cc1OC (stereo unspecified)
  A = 75.6 | B = 82.9 | C = / | D = 100.2
> CNCCCc1ccco1
  A = 106.0 | B = 91.7 | C = -28.0 | D = 103.7
> N#Cc1c(-c2c(O)[nH]c3ccccc23)c2c(-c3ccncc3)[nH]nc2oc1=N
  A = 105.2 | B = 63.8 | C = -6.1 | D = 104.1
> CCC(=O)Nc1nc2cc(NC(=O)C3CCN(S(=O)(=O)N(CC)CC)CC3)ccc2s1
  A = / | B = / | C = -26.0 | D = 105.1
> CC1=C(C(=O)NCCc2ccc(Cl)cc2)C2(CCCCC2)OC1=O
  A = 89.1 | B = 97.3 | C = / | D = 100.3
> CC1(O)c2ccccc2C(=O)N1Cc1ccccc1 (stereo unspecified)
  A = 91.1 | B = 90.7 | C = -28.3 | D = 98.4

By substructure, the compounds so far containing an aryl thioether with sulfur outside any ring
Field names: A = Sa growth inh; B = Sa growth inh second temp; C = HCMV UL50-53 inh; D = GIV Gai3 FP
> O=C(/C=C/Sc1ccccn1)c1ccccc1
  A = 102.4 | B = 82.5 | C = -9.9 | D = 85.7
> c1ccc(SCCN2CCN(CCSc3ccccc3)CC2)cc1
  A = 95.8 | B = 96.3 | C = -5.3 | D = /
> Cc1ccc2nc(SCC(=O)N(C(C)C)C(C)C)[nH]c2c1
  A = 76.5 | B = 81.5 | C = -23.9 | D = 98.5
> O=C(CSc1ncnc2sc3c(c12)CCC3)NCCN1C(=O)CSC1=O
  A = 87.5 | B = 92.7 | C = -4.7 | D = /
> CCOC(=O)c1c(C)[nH]c(C)c1S(=O)(=O)NCC(=O)Nc1cccc(SC)c1
  A = 94.9 | B = 94.7 | C = / | D = 102.9
> COc1cc(-c2nnc(SCC(=O)N3CCCCC3C)o2)cc(OC)c1OC (stereo unspecified)
  A = 115.7 | B = 84.5 | C = / | D = 100.9

The listing continues:
Field names: A = Sa growth inh; B = Sa growth inh second temp; C = HCMV UL50-53 inh; D = GIV Gai3 FP
> CC(C)Oc1ccc(CNC(=O)c2ccc(CN3CC(=O)N4CCCCC4C3=O)cc2)cc1 (stereo unspecified)
  A = 110.8 | B = 93.8 | C = / | D = 103.3
> CCCc1[nH]n(-c2ccc(F)cc2)c(=O)c1C=N
  A = 105.8 | B = 86.0 | C = -8.4 | D = /
> COc1ccc(C(CNC(=O)COc2ccc(Br)cc2)c2c[nH]c3ccccc23)cc1 (stereo unspecified)
  A = / | B = / | C = 6.3 | D = 104.3
> CC1CCN(S(=O)(=O)c2ccc(NC(=O)CSc3nnnn3C)cc2)CC1
  A = 95.0 | B = 78.7 | C = -7.3 | D = 101.3
> Cc1cc(C)c(NC(=O)Cn2c(=O)n(CCCCC(=O)NCc3ccccc3Cl)c(=O)c3ccccc32)c(C)c1
  A = 108.1 | B = 87.4 | C = -30.3 | D = 98.2

Source: PubChem BioAssay
